RanGTP-Impb inh – inhibitors of RanGTP-importin-beta interaction, primary screen, biochemical, FRET, CFP-Ran, YFP-importin-beta, homogeneous; cell-free CFP-Ran/YFP-importin-beta FRET ratio; inhibition, % (no concentration beside the values); actives 1.1% (n = 300,000);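 active = most replicates above 15%; inconclusive = exactly half above 15%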;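 note: 0% = DMSO wells and 100% = Ran loaded with GDP instead of GTP; wells of about 40 µL received 100 nL stock; the first replicate is given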
Vif A3G – inhibitors of Vif binding to APOBEC3G peptide, primary screen, biochemical, TR-FRET, GST-Vif 1-94, biotin-A3G peptide, dose response retest (AID 1117319); TR-FRET GST-Vif / biotin-A3G peptide binding; higher % means a stronger effect; test concentration not given here; strong numbers were not always called active; inhibition, %; hits with a dose series show IC50 in µM; actives 0.57% (n = 260,000);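 active = above the screen mean plus three standard deviations and confirmed in dose response; inconclusive = results disagree or hit not tested in dose response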;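 note: Vif residues 1-94 fused to GST binding biotinylated APOBEC3G peptide 110-148; 0% = full assay without inhibitor and 100% = GST in place of GST-Vif; retest series ran down from 100 µM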
Calb FLC – affects C. albicans growth with fluconazole; C. albicans CaCi-2 (fluconazole-resistant clinical isolate) + fluconazole, Alamar Blue growth, 48 h; growth inhibition, % (concentration not given with the values); actives 0.57% (n = 300,000); AID 1979;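 active = most replicates above 75%; inconclusive = exactly half above 75%; inactive = most below 75%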;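 note: all wells also contain fluconazole at 8 µg/ml as a sub-toxic cotreatment; 0% = median of DMSO wells and 100% = median of geldanamycin control wells; wells of about 8 µL received 7.5 nL stock; the first replicate is given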
Beta apoptosis – beta cell apoptosis inhibition; actives 0.8% (n = 300,000); INS-1E cytokine-induced death, ATP luminescence, 48 h; percent of positive-control rescue, neutral wells zero; AID 435005; protection from apoptosis, % (concentration not given with the values);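 active = all replicates at 75% or more, or half of them and the mean; inconclusive = half reach 75% but not the mean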;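 note: 0% = cytokine-treated negative control wells and 100% = positive control rescue; higher means more ATP so stronger rescue from cytokine killing; wells of about 40 µL received 100 nL stock; the first replicate is given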
T cruzi repl – T. cruzi replication inhibition; inhibition, % (test concentration not listed); T. cruzi beta-gal in NIH3T3, luminescence, 90 h; actives 1.4% (n = 300,000);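 active = mean inhibition across valid replicates above about 55%, limit read from the data; inconclusive = mean below that limit but half or more replicates reach it; inactive = mean below it, under half of replicates reach it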;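 note: signal also drops with host cell toxicity which is not excluded here; 0% = plate median of DMSO wells and 100% = zero luminescence signal; higher percent means less beta-gal luminescence so fewer parasites; stock transfer was 50 nL into about 50 µL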
AF4-AF9 inh – inhibitors of human MLL-AF4/AF9 interaction; AlphaScreen, biotin-AF4 peptide binding to FLAG-AF9; inhibition, % at 10 µM; actives 0.47% (n = 350,000); AID 651704;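 active = every replicate reaching a set inhibition limit, whatever the replicate mean, cut at about 25% in these data; inconclusive = mean inhibition reaches that limit but some replicates miss it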;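 note: 0% = plate neutral control median and 100% = total signal loss; the record names both 10 and 1 µM as test concentration; the first replicate is given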
Target sequence (P42568 whole entry, looked up): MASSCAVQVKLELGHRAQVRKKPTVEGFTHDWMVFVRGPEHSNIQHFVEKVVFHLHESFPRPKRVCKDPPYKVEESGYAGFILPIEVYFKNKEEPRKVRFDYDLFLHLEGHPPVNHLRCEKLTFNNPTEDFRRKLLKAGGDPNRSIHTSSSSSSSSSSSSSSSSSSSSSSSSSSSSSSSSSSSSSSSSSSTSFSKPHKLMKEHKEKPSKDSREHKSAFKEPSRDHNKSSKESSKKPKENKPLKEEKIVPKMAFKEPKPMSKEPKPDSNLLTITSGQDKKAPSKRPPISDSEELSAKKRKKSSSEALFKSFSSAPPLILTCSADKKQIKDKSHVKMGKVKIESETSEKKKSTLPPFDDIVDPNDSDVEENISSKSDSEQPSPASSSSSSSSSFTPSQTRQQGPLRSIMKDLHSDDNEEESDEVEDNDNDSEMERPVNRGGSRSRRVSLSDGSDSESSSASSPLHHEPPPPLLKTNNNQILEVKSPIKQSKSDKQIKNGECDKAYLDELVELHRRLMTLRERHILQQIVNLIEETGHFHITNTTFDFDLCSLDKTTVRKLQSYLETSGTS
Bfl-1 A1 inh – inhibitors of the anti-apoptotic protein A1, read as caspase activation; caspase activation, % (concentration not given with the values); AID 2462; MEF A1-2A-BIM cells, Caspase-Glo 3/7 luminescence, 3 h; percent of clofoctol response, vehicle zero; actives 0.066% (n = 330,000);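 active = over half of replicate activation scores above 10%, or exactly half above 10 with the replicate mean above 10; inconclusive = replicate mean below 10 yet half the replicates above 10; inactive = over half of replicates below 10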;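 note: wells of about 30 µL received 50 nL stock; many hits fall short of the cut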
LANA-H2B inh – blocks KSHV LANA binding to histone H2A/H2B. Q9QR71. cell-free LANA-H2A/H2B peptide, fluorescence polarization. inhibition, % (no concentration beside the values). actives 0.6% (n = 320,000); in the data active = inhibition mostly above about 10%, no sharp cut-off; inactive = mostly below about 6.7%;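 note: stock transfer was 7.5 nL into about 10 µL; 0% = median of vehicle wells and 100% = median of positive control wells; one replicate is shown; the record names a cut of 25% in any replicate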
Numbers without * were called inactive; u = inconclusive; x = not tested or not shown; & = joins results of further samples.

| nr | smiles | RanGTP-Impb inh | Vif A3G | Calb FLC | Beta apoptosis |
| --- | --- | --- | --- | --- | --- |
| 1 | CCOC(=O)N1CCN(c2c(N3CCN(c4ccccc4F)CC3)c(=O)c2=O)CC1 | -0.9 | u | -5.3 | -3.6 |
| 2 | Nc1nnc(Sc2ccc(Cl)cc2[N+](=O)[O-])s1 | -4.7 | u | -5.6 | 1.1 |
| 3 | C=CCn1c(SCCCC)nc(O)cc1=O | -0.7&-2.8 | -5.5%&27.9% | -5.8&9.3 | -2.1&-3.4 |
| 4 | COc1ccc(-c2nsc3c(N4CCCCC4)ncnc23)cc1 | -1.0 | -42.3% | -3.7 | -4.7 |
| 5 | CCOc1cccc(N2C(=O)CC(N3CCN(c4nc5ccccc5s4)CC3)C2=O)c1 (stereo not drawn) | 1.4 | -1.3% | -2.0 | x |
| 6 | CN(CC(=O)Nc1cccc(F)c1)C(=O)c1ccc(N2CCCCCC2)c([N+](=O)[O-])c1 | 1.1 | -1.7% | -3.4 | x |
| 7 | Cc1ccc2oc(=O)cc(CN3CCCCC3)c2c1 | 6.0 | 9.9% | 2.1 | -2.0 |
| 8 | Cc1ccccc1Cn1nc(C)c(NC(=O)c2ccccc2)c1C | -2.9 | 18.8% | 12.1 | -4.4 |
| 9 | O=C(Nc1cccn(Cc2c(Cl)cccc2Cl)c1=O)c1ccccc1Cl | 1.7 | 5.4% | 35.3 | 1.9 |
| 10 | COc1ccc(CCNC(=O)CCNS(=O)(=O)c2cc(Br)cnc2N)cc1OC | 3.5 | x | -3.0 | -4.8 |

| nr | T cruzi repl | AF4-AF9 inh | Bfl-1 A1 inh | LANA-H2B inh |
| --- | --- | --- | --- | --- |
| 1 | 3.9 | -1.6 | 0.1 | -0.1 |
| 2 | 30.6 | 2.0 | -0.2 | -3.3 |
| 3 | -12.6&-15.0 | -1.5&-4.5 | 1.2&0.9 | 3.3&-5.4 |
| 4 | 12.3 | x | -7.1 | -0.8 |
| 5 | -5.2 | x | -0.8 | 3.0 |
| 6 | 16.5 | 5.0 | -0.3 | 3.5 |
| 7 | -3.9 | 0.8 | 1.3 | 2.2 |
| 8 | -13.2 | -1.3 | 1.0 | 0.9 |
| 9 | 32.3 | x | 0.2 | 0.8 |
| 10 | -2.9 | 2.0 | 1.2 | -4.0 |

Not a retest: entries from further up.
| nr | smiles | RanGTP-Impb inh | Vif A3G | Calb FLC | Beta apoptosis |
| --- | --- | --- | --- | --- | --- |
| 1 | CCOC(=O)N1CCN(c2c(N3CCN(c4ccccc4F)CC3)c(=O)c2=O)CC1 | -0.9 | u | -5.3 | -3.6 |
| 2 | Nc1nnc(Sc2ccc(Cl)cc2[N+](=O)[O-])s1 | -4.7 | u | -5.6 | 1.1 |
| 3 | C=CCn1c(SCCCC)nc(O)cc1=O | -0.7&-2.8 | -5.5%&27.9% | -5.8&9.3 | -2.1&-3.4 |
| 4 | COc1ccc(-c2nsc3c(N4CCCCC4)ncnc23)cc1 | -1.0 | -42.3% | -3.7 | -4.7 |
| 5 | CCOc1cccc(N2C(=O)CC(N3CCN(c4nc5ccccc5s4)CC3)C2=O)c1 (stereo not drawn) | 1.4 | -1.3% | -2.0 | x |
| 6 | CN(CC(=O)Nc1cccc(F)c1)C(=O)c1ccc(N2CCCCCC2)c([N+](=O)[O-])c1 | 1.1 | -1.7% | -3.4 | x |
| 7 | Cc1ccc2oc(=O)cc(CN3CCCCC3)c2c1 | 6.0 | 9.9% | 2.1 | -2.0 |
| 8 | Cc1ccccc1Cn1nc(C)c(NC(=O)c2ccccc2)c1C | -2.9 | 18.8% | 12.1 | -4.4 |
| 9 | O=C(Nc1cccn(Cc2c(Cl)cccc2Cl)c1=O)c1ccccc1Cl | 1.7 | 5.4% | 35.3 | 1.9 |
| 10 | COc1ccc(CCNC(=O)CCNS(=O)(=O)c2cc(Br)cnc2N)cc1OC | 3.5 | x | -3.0 | -4.8 |

| nr | T cruzi repl | AF4-AF9 inh | Bfl-1 A1 inh | LANA-H2B inh |
| --- | --- | --- | --- | --- |
| 1 | 3.9 | -1.6 | 0.1 | -0.1 |
| 2 | 30.6 | 2.0 | -0.2 | -3.3 |
| 3 | -12.6&-15.0 | -1.5&-4.5 | 1.2&0.9 | 3.3&-5.4 |
| 4 | 12.3 | x | -7.1 | -0.8 |
| 5 | -5.2 | x | -0.8 | 3.0 |
| 6 | 16.5 | 5.0 | -0.3 | 3.5 |
| 7 | -3.9 | 0.8 | 1.3 | 2.2 |
| 8 | -13.2 | -1.3 | 1.0 | 0.9 |
| 9 | 32.3 | x | 0.2 | 0.8 |
| 10 | -2.9 | 2.0 | 1.2 | -4.0 |

Going on with the list:
| nr | smiles | RanGTP-Impb inh | Vif A3G | Calb FLC | Beta apoptosis |
| --- | --- | --- | --- | --- | --- |
| 11 | Cc1nc(N)[nH]c(=O)c1CC(=O)OCCCl | 1.5 | -3.5% | 4.4 | -2.8 |
| 12 | Cc1nn(-c2ccc(F)cc2)c(C)c1NS(=O)(=O)c1ccc(Cl)cc1 | 1.3 | 22.7% | 26.1 | -3.1 |
| 13 | O=C(c1ccc2c(c1)OCO2)N(c1ccc(Cl)cc1)C1C=CS(=O)(=O)C1 (stereo not drawn) | -1.1 | 18.8% | 13.9 | 0.2 |
| 14 | CC(C)NC(=O)NC(=O)COC(=O)c1ccccc1O | 15.5* | x | 1.8 | -8.8 |
| 15 | CCc1ccc(OCC(=O)N(C)C)c(Br)c1 | 3.6 | 24.0% | 4.6 | -3.7 |
| 16 | O=C(Cn1cccc1)N1CCN(c2ccc(F)cc2)CC1 | -1.7 | 10.8% | -5.8 | 2.6 |
| 17 | Cc1c(C(c2ccc(F)cc2)c2c(C)n(C)n(-c3ccccc3)c2=O)c(=O)n(-c2ccccc2)n1C | 1.2 | x | 3.5 | -7.1 |
| 18 | Cc1ccccc1C(=O)Oc1ccccc1N1C(=O)C2CC=CCC2C1=O (stereo not drawn) | 0.9 | 9.1% | 16.3 | -1.2 |
| 19 | CC(C)c1ncc(C(O)c2ccccc2)n1C (stereo not drawn) | -2.6 | 4.2% | -11.5 | -7.6 |
| 20 | O=C(CN1C(=O)C2C3C=CC(C4CC34)C2C1=O)OCC(=O)c1ccccc1 (stereo not drawn) | 8.0 | 4.8% | 2.6 | -4.2 |

| nr | T cruzi repl | AF4-AF9 inh | Bfl-1 A1 inh | LANA-H2B inh |
| --- | --- | --- | --- | --- |
| 11 | 1.3 | -10.7 | 0.8 | -2.7 |
| 12 | 0.2 | x | -2.4 | 7.1 |
| 13 | 6.6 | x | 0.3 | -0.6 |
| 14 | -3.7 | -6.0 | 0.3 | -4.6 |
| 15 | -9.2 | x | 0.3 | 4.5 |
| 16 | -4.9 | 4.4 | 0.5 | 2.6 |
| 17 | -4.5 | 3.3 | -0.2 | 3.5 |
| 18 | -29.8 | x | 0.7 | x |
| 19 | 0.3 | 3.8 | 0.6 | -1.2 |
| 20 | -6.0 | x | -0.3 | 5.1 |

(more compounds)
| nr | smiles | RanGTP-Impb inh | Vif A3G | Calb FLC | Beta apoptosis |
| --- | --- | --- | --- | --- | --- |
| 21 | c1ccc(-c2nc(-c3ccccn3)nc(-c3ccccn3)n2)nc1 | 3.3 | 22.7% | 7.0 | x |
| 22 | CC1(C(=O)Nc2nc3ccc(S(C)(=O)=O)cc3s2)CC1(Cl)Cl (stereo not drawn) | 0.6 | x | -3.7 | 5.7 |
| 23 | CCn1c(CNc2ccc(C(=O)O)cc2)nc2ccccc21 | 1.3 | 1.0% | 4.8 | -5.5 |
| 24 | Cc1nn(-c2ccccc2)c2c1C1(C(=O)N(C(C)C)c3ccccc31)C(C#N)=C(N)O2 (stereo not drawn) | -3.5 | -2.3% | 2.2 | -7.1 |
| 25 | Cc1ccc(Nc2ccc(C(=O)O)cc2N)cc1 | 0.6 | 15.0% | 14.7 | 0.0 |
| 26 | CCc1noc(C)c1C(=O)Nc1cc(S(=O)(=O)N(CC)CC)ccc1N1CCOCC1 | 0.6 | 6.5% | -0.6 | -0.1 |
| 27 | CN1CCN(S(=O)(=O)c2ccc(NC(=O)c3csc4ccccc34)cc2)CC1 | 0.9 | -4.0% | -23.6 | -1.9 |
| 28 | NC(=O)c1c(NC(=O)CSc2nnc(-c3ccco3)n2-c2ccccc2)sc2c1CCC2 | -4.8 | 19.6% | 17.7 | 1.6 |
| 29 | COc1ccc2ccccc2c1CN1CCN(Cc2ccccc2)CC1 | -0.9 | 4.0% | -29.4 | -2.9 |
| 30 | CC(=O)Nc1ccccc1C(=O)N1CCN(Cc2ccc3c(c2)OCO3)CC1 | -2.6 | x | 3.2 | -1.7 |
| 31 | COC(=O)/C=c1/s/c(=C(\C#N)C(=O)NCc2ccco2)n(-c2ccccc2)c1=O | -3.2 | 8.0% | 1.6 | -7.7 |

| nr | T cruzi repl | AF4-AF9 inh | Bfl-1 A1 inh | LANA-H2B inh |
| --- | --- | --- | --- | --- |
| 21 | -10.6 | -3.1 | -0.2 | -3.4 |
| 22 | -9.4 | -0.1 | 0.1 | -0.4 |
| 23 | -7.5 | -3.5 | 0.7 | -4.5 |
| 24 | 6.8 | x | 0.7 | 5.1 |
| 25 | -7.6 | x | -8.1 | -3.5 |
| 26 | 12.9 | -1.9 | -0.1 | x |
| 27 | 7.7 | 11.9 | 0.2 | -3.7 |
| 28 | 17.4 | x | 0.5 | 3.4 |
| 29 | 35.8 | x | 0.7 | -1.5 |
| 30 | -2.5 | 1.3 | -0.6 | 2.5 |
| 31 | 9.5 | x | 0.1 | -5.7 |

Fetched by structure from the entries so far (2):
| nr | smiles | RanGTP-Impb inh | Vif A3G | Calb FLC | Beta apoptosis |
| --- | --- | --- | --- | --- | --- |
| 21 | c1ccc(-c2nc(-c3ccccn3)nc(-c3ccccn3)n2)nc1 | 3.3 | 22.7% | 7.0 | x |
| 26 | CCc1noc(C)c1C(=O)Nc1cc(S(=O)(=O)N(CC)CC)ccc1N1CCOCC1 | 0.6 | 6.5% | -0.6 | -0.1 |

| nr | T cruzi repl | AF4-AF9 inh | Bfl-1 A1 inh | LANA-H2B inh |
| --- | --- | --- | --- | --- |
| 21 | -10.6 | -3.1 | -0.2 | -3.4 |
| 26 | 12.9 | -1.9 | -0.1 | x |

Screening data: PubChem, several laboratories
